# Assay outcomes (PubChem)
# A1 inh: inhibitors of the anti-apoptotic protein A1, read as caspase activation. MEF A1-2A-BIM cells, Caspase-Glo 3/7 luminescence, 3 h; percent of clofoctol response, vehicle zero. AID 2462. 330,000 compounds, 0.066% hits. caspase activation, % (no concentration beside the values);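 active means over half of replicate activation scores above 10%, or exactly half above 10 with the replicate mean above 10; inconclusive means replicate mean below 10 yet half the replicates above 10; inactive means over half of replicates below 10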;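 further: wells of about 30 µL received 50 nL stock; many hits fall short of the cut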
# UCH37 DUB inh: inhibitors of human deubiquitinating enzyme UCH37; Q9Y5K5; purified proteasome/UCH37, Ub-AMC cleavage fluorescence; inhibition, % (test concentration not listed); 330,000 compounds, 0.33% hits; AID 588478;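 active means mean of two replicates above 20%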;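 further: 0% = compound-free wells with enzyme and 100% = wells lacking proteasome; stock transfer was 100 nL into about 20 µL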
# Target sequence (Q9Y5K5 whole entry, looked up): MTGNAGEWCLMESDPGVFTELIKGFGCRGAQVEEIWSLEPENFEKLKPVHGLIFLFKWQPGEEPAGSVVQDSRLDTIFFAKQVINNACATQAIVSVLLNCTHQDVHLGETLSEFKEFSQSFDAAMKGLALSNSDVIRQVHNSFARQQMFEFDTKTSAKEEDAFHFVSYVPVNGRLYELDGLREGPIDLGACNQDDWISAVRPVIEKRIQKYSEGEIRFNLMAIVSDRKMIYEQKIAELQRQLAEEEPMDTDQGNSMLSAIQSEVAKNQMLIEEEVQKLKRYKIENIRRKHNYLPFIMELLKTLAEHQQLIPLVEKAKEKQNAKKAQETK
#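 assay system = human UCH37 enzyme supplied as purified proteasome complex | amount = proteasome at 0.15 nM in the dispensed enzyme solution | schedule = 30 min compound-proteasome preincubation then 25 min substrate reaction, room temperature | measured by = fluorescence, ex 355 nm, em 460 nm | benchmarks = no-proteasome wells (full inhibition) and compound-free wells (no inhibition)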
# B2AR ag: agonists of human beta-2 adrenergic receptor inducing internalization; P07550; Am2.2-beta2AR cells, FAP receptor internalization, flow cytometry; reference of the scale not given here; response, % (concentration not given with the values); 340,000 compounds, 0.43% hits; AID 504454;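 active means response above a set limit, near 3 SD of response in nonfluorescent compounds, cut at about 42% in these data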;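 further: stock transfer was 100 nL into about 11 µL; a reference agonist was the positive control; negative values mostly stem from fluorescent compounds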
# HNF4A DNA FP: change in binding of human HNF4 alpha to DNA; 360,000 compounds, 0.3% hits; P41235; activity change, % at 10 µM; HNF4a-FITC DNA binding, fluorescence polarization, 1 h; in the data active means activity change above about 30%, passing the limit was not always enough;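 further: controls were the assay level and a saturating level of protein; the project sought stronger binding though the title names inhibitors; some compounds called inactive have numbers as strong as hits; positive values seem to mean higher polarization but the record does not say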
# Target sequence (P41235 whole entry, looked up): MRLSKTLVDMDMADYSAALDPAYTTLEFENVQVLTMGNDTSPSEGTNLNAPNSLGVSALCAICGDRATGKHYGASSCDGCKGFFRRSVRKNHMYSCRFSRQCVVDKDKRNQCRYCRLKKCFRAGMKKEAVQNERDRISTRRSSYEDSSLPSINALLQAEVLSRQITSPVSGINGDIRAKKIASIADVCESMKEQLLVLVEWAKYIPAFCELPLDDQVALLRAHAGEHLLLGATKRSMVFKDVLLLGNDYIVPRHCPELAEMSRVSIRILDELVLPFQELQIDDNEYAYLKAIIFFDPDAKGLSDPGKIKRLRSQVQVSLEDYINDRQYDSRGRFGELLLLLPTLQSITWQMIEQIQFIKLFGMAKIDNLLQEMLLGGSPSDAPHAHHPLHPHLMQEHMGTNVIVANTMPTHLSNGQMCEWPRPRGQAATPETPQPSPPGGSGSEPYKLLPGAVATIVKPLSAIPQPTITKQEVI
# Vif TR-FRET: HIV-1 Vif–A3G interaction blockers – biochemical, TR-FRET, GST-Vif 1-94, biotin-A3G peptide, dose response retest, primary screen (AID 1117319); 260,000 compounds, 0.57% hits; TR-FRET GST-Vif / biotin-A3G peptide binding; higher % means a stronger effect; test concentration not given here; strong numbers were not always called active; one-dose inhibition, %; IC50 in µM for titrated hits;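 active means above the screen mean plus three standard deviations and confirmed in dose response; inconclusive means results disagree or hit not tested in dose response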;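 further: Vif residues 1-94 fused to GST binding biotinylated APOBEC3G peptide 110-148; 0% = full assay without inhibitor and 100% = GST in place of GST-Vif; retest series ran down from 100 µM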
# LANA-H2B inh: blocks KSHV LANA binding to histone H2A/H2B; 320,000 compounds, 0.6% hits; inhibition, % (concentration not given with the values); cell-free LANA-H2A/H2B peptide, fluorescence polarization; in the data active means inhibition mostly above about 10%, no sharp cut-off; inactive means mostly below about 6.7%;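 further: stock transfer was 7.5 nL into about 10 µL; 0% = median of vehicle wells and 100% = median of positive control wells; one replicate is shown; the record names a cut of 25% in any replicate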
# Ecoli growth: E. coli growth inhibition. Escherichia coli growth, OD600, 23 h; active compounds read low. OD600 absorbance (test concentration not listed). 330,000 compounds, 0.21% hits;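 active means OD600 absorbance below the run mean of sample wells minus 3.6 SD, in any replicate, cut at about 0.56 in these data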;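 further: stock transfer was 300 nL into about 60 µL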
# The depositor's hits bear a star; ? = inconclusive; · = no result given.
# Order of values: A1 inh, UCH37 DUB inh, B2AR ag, HNF4A DNA FP, Vif TR-FRET, LANA-H2B inh, Ecoli growth
1) CC(C)(C)NC(=O)c1ccc(Sc2ccccc2)c([N+](=O)[O-])c1
 : 1.4, 6.8, -5.5, -0.7, 6.2%, 1.0, 0.791
2) O=C(NCC(=O)N(c1cccnc1)C(C(=O)NC1CCCC1)c1cccs1)c1ccco1 (stereo unspecified)
 : 0.3, -0.9, 2.0, -0.9, -6.8%, -85.2, 0.65
3) Cc1cccc(CN2CCN(C(=O)CCc3nnc(C4CCCCC4)o3)CC2)c1
 : -0.7, 2.4, -2.6, -0.8, ·, 1.6, 0.69
4) CN(C)C(=O)CN1C(=O)NC(c2ccccc2)(c2ccccc2)C1=O
 : -0.1, 1.4, 10.0, 1.7, ·, 1.1, 0.688
5) Cc1ccc(S(=O)(=O)NCCC(=O)Nc2nnc(C3CC3)s2)cc1C
 : -1.4, 4.2, -0.6, 1.9, 19.2%, 1.4, 0.725
6) COc1ccc(NC(=O)c2ccc(S(=O)(=O)N3CCCCC3)cc2)c(OC)c1
 : -0.6, 3.7, -1.9, -1.4, -0.6%, 4.9, 0.658
7) O=C(NCc1cccnc1)Nc1ccc(Cl)cc1Cl
 : 1.2, 0.9, -6.6, -1.7, -1.3%, 2.6, 0.683
8) CC1=C(C(=O)Nc2ccccc2)C(c2ccc(C)o2)n2c(s/c(=C/c3ccccc3)c2=O)=N1 (stereo unspecified)
 : 0.9, ·, 4.0, -1.4, 12.7%, -3.1, ·
9) O=C(c1cccs1)N(Cc1cc2ccccc2[nH]c1=O)c1ccccc1
 : -1.0, -3.1, -6.0, -0.4, ·, -1.2, 0.613
10) CCn1c(C)cc(/C=C2\NC(=O)N(CC(=O)Nc3ccc(F)cc3)C2=O)c1C
 : -0.2, -0.6, 11.2, 1.9, ?, -2.4, 0.695
11) Cc1ccc(C(=O)NCC(=O)N2CCC(Cc3ccccc3)CC2)cc1
 : 0.4, ·, -4.2, 0.9, ·, -2.1, ·
12) COc1cc(/C=N/O)ccc1OCc1ccccc1Cl
 : -3.1, ·, 7.8, 0.0, -6.5%, -4.3, ·
13) COc1ccc(/C=N/N=C2/SCC(=O)N2Cc2ccccc2)cc1
 : -0.4, ·, 1.7, 3.1, ·, 0.0, ·
14) CCOc1ccc(S(=O)(=O)NCc2cccnc2)cc1
 : -0.3, 2.3, -6.5, 2.0, 0.0%, -5.5, 0.683
15) CN(C)C(=O)Cn1c(SCC(=O)NCc2ccc3c(c2)OCO3)nc2ccccc21
 : 0.6, 2.3, -0.4, -2.8, 27.9%, -0.9, 0.733
16) Cc1cc(S(=O)(=O)N2CCCC(N(C)CCc3ccccn3)C2)c(C)s1 (stereo unspecified)
 : -0.5, ·, -8.7, 2.0, 1.6%, -1.8, ·
17) COc1ccc(C(=O)Nc2ccc(N3CCN(C(=O)C(C)C)CC3)cc2)cc1[N+](=O)[O-]
 : 0.5, 1.0, 7.2, -3.2, 22.5%, 0.3, 0.7
18) S=C(Nc1ccccc1)N1CCN(C2CCCCC2)CC1
 : 0.0, 3.2, 2.0, -1.9, 1.6%, -3.5, 0.697
19) CCOc1ccccc1C(=O)NC1CC2CCCC(C1)N2Cc1nnnn1Cc1ccco1 (stereo unspecified)
 : 1.3, 0.5, -15.1, -3.0, 4.1%, -1.2, 0.706
20) CCCC(=O)Nc1ccccc1NC(=O)c1ccc(OC(C)=O)cc1
 : 0.5, 1.8, -5.7, 0.5, 3.3%, 5.3, 0.683
21) Cc1cc(S(=O)(=O)Nc2ccc3ccccc3c2)c(C)s1
 : 0.1, 2.4, 7.8, 5.6, -5.3%, -0.3, 0.618
22) COC(=O)c1cnc(Oc2ccc(NC(=O)NC(=O)c3c(F)cccc3Cl)cc2)cc1C(F)(F)F
 : 0.6, -1.7, 2.2, 3.3, ·, -0.5, 0.648
23) COc1cc(/C=N/NC(=O)c2ccncc2)ccc1OCCN1CCCCC1
 : -0.2, ·, -10.8, 4.4, 1.6%, 0.7, ·
24) CCC(C)(C(=O)NC1CCCC1)N(Cc1cccs1)C(C)=O (stereo unspecified)
 : -1.4, 1.4, -2.6, -0.5, 16.7%, -4.8, 0.727
25) O=C(Cn1nc(-c2ccc(N3CCOCC3)c([N+](=O)[O-])c2)c2ccccc2c1=O)N1CCCCC1
 : 0.1, 2.1, 13.2, -2.3, 8.2%, -2.7, 0.631
26) Cc1cc(C)c(C#N)c(N2CCSCC2)n1
 : -0.1, -43.9, -1.0, -1.8, -3.2%, -1.4, 0.702
27) CCOc1ccc(CCNC(=O)CCc2nnc3ccc(N4CCOCC4)nn23)cc1
 : 0.1, 7.3, -5.8, -0.2, 2.5%, -10.4, 0.758
28) CC(C)C[C@@H]1NC(=O)N(CCCn2ccnc2)C1=O
 : 0.2, 0.1, -9.2, 3.9, -0.1%, 2.9, 0.66
29) CC1C/C(=N/NC(=O)c2ccc(CSc3nc4ccccc4[nH]3)cc2)CC(C)(C)C1 (stereo unspecified)
 : -1.0, ·, -2.6, -0.9, -8.2%, 3.3, ·
30) CCN(CC(=O)NCc1ccc(F)cc1)C(=O)Cc1ccc(OC)cc1
 : 0.7, -1.2, -0.9, -1.4, 6.1%, -2.1, 0.653
31) CC(Sc1ncccn1)C(=O)Nc1ccc2c(c1)OCO2 (stereo unspecified)
 : 0.0, 4.1, 3.5, -0.1, ·, 3.0, 0.64
32) O=C(N/N=C/C(Br)=C/c1ccccc1)c1cnccn1
 : -1.1, ·, -6.2, 11.5, 1.2%, -5.4, ·

# Structures from the list above containing fluorine (three):
# Order of values: A1 inh, UCH37 DUB inh, B2AR ag, HNF4A DNA FP, Vif TR-FRET, LANA-H2B inh, Ecoli growth
10) CCn1c(C)cc(/C=C2\NC(=O)N(CC(=O)Nc3ccc(F)cc3)C2=O)c1C
 : -0.2, -0.6, 11.2, 1.9, ?, -2.4, 0.695
22) COC(=O)c1cnc(Oc2ccc(NC(=O)NC(=O)c3c(F)cccc3Cl)cc2)cc1C(F)(F)F
 : 0.6, -1.7, 2.2, 3.3, ·, -0.5, 0.648
30) CCN(CC(=O)NCc1ccc(F)cc1)C(=O)Cc1ccc(OC)cc1
 : 0.7, -1.2, -0.9, -1.4, 6.1%, -2.1, 0.653

# Record cards, from the list above:
# Results for CN(C)C(=O)CN1C(=O)NC(c2ccccc2)(c2ccccc2)C1=O → A1 inh: -0.1; UCH37 DUB inh: 1.4; B2AR ag: 10.0; HNF4A DNA FP: 1.7; Vif TR-FRET: ·; LANA-H2B inh: 1.1; Ecoli growth: 0.688
# Results for COc1ccc(C(=O)Nc2ccc(N3CCN(C(=O)C(C)C)CC3)cc2)cc1[N+](=O)[O-] → A1 inh: 0.5; UCH37 DUB inh: 1.0; B2AR ag: 7.2; HNF4A DNA FP: -3.2; Vif TR-FRET: 22.5%; LANA-H2B inh: 0.3; Ecoli growth: 0.7

# Single entries from the results shown:
# Result for compound 2 under Vif TR-FRET: -6.8%
# Result for compound 16 under B2AR ag: -8.7
# Result for compound 1 under Ecoli growth: 0.791

# Grouped by structure: the compounds so far containing an aryl thioether with sulfur outside any ring (4)
# Order of values: A1 inh, UCH37 DUB inh, B2AR ag, HNF4A DNA FP, Vif TR-FRET, LANA-H2B inh, Ecoli growth
1) CC(C)(C)NC(=O)c1ccc(Sc2ccccc2)c([N+](=O)[O-])c1
 : 1.4, 6.8, -5.5, -0.7, 6.2%, 1.0, 0.791
15) CN(C)C(=O)Cn1c(SCC(=O)NCc2ccc3c(c2)OCO3)nc2ccccc21
 : 0.6, 2.3, -0.4, -2.8, 27.9%, -0.9, 0.733
29) CC1C/C(=N/NC(=O)c2ccc(CSc3nc4ccccc4[nH]3)cc2)CC(C)(C)C1 (stereo unspecified)
 : -1.0, ·, -2.6, -0.9, -8.2%, 3.3, ·
31) CC(Sc1ncccn1)C(=O)Nc1ccc2c(c1)OCO2 (stereo unspecified)
 : 0.0, 4.1, 3.5, -0.1, ·, 3.0, 0.64
